KCNQ2 enhance: enhances the rat KCNQ2 potassium channel. O88943. CHO-K1 KCNQ2, FluxOR thallium flux fluorescence; stronger effect = higher value. B-score at 10 µM. 0.54% of 310,000 active;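 active = fluorescence ratio B-score at least 3 SD of library B-scores, with initial fluorescence B-score within 3 SD, cut at about 5.3 in these data; same plate scores as AID 2156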;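 also: B-score of peak minus minimum over baseline fluorescence ratio after K+ and Tl+ stimulus; positive B-score means potentiation of KCNQ2 with more thallium influx and brighter signal; only the inactives scoring about 0 or higher are listed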
Target sequence (O88943 whole entry, looked up): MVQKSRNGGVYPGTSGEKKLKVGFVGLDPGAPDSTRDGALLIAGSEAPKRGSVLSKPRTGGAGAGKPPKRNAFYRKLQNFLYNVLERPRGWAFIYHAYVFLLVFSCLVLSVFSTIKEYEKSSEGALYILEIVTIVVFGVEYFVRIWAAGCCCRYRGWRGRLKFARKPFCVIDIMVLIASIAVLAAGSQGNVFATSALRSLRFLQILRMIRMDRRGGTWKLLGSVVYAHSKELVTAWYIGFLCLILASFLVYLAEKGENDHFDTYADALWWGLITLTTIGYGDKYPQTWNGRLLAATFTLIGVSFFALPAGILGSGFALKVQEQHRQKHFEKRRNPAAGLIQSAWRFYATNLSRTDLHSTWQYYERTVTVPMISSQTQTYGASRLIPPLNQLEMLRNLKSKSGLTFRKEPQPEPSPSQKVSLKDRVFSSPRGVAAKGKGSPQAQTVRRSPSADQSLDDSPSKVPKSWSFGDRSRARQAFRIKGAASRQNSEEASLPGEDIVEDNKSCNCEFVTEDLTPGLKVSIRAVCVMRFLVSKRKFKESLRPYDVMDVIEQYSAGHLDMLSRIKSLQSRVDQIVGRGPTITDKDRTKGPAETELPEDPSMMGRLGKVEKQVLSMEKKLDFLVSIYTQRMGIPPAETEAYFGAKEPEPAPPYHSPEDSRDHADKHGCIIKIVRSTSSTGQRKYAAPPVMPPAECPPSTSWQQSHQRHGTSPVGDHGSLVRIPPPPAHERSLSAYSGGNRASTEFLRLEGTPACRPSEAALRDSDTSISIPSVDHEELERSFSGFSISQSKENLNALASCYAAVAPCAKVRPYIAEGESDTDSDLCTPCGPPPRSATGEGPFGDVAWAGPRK
KCNQ2 enhance baseline: recorded beside KCNQ2 enhance, whose call it bears; B-score; compound at 10 µM; measured here: initial fluorescence intensity artifact check;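 brightness before thallium and not channel activity; 0 = typical well and far values either way flag optical interference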
Starred values were filed as active, the others as inactive. Only part of the results is shown; rates above refer to the full screens.

SMILES	KCNQ2 enhance	KCNQ2 enhance baseline
COc1cc(NC(=O)c2ccc([N+](=O)[O-])cc2)c(OC)cc1NC(=O)CC(C)C	1.2	-0.35
CCN(CC)c1ccc(-c2c(C#N)c(N)nc(OC)c2C#N)cc1	1	-1.2
CC(OC(=O)c1ccccc1)C(=O)NCCC1=CCCCC1 (stereo not drawn)	1.2	-0.47
Nc1nnc(SCCOc2ccc(Br)cc2)s1	0.34	0.17
O=C(Nc1nc2cc3c(cc2s1)OCO3)c1ccco1	0.34	-0.8
Cc1cccc(NC(=O)c2ccc(S(=O)(=O)NCc3cccnc3)cc2)c1C	1.1	0.74
Cc1ccc(NC(=O)C2C(=O)N(CCO)C3(C)CC2c2ccccc2O3)cc1 (stereo not drawn)	0.45	-1.8
COc1ccccc1C(=O)Nc1cccc(C(=O)N2CCOCC2)c1	0.14	-0.1
CC(=O)N1CCN(Cc2nc3cc(NC(=O)Cn4nc(C)c5ccccc5c4=O)ccc3n2C)CC1	0.72	-0.37
COc1cccc(CN2CCNC(=O)C2CC(=O)N(C)C2CCOCC2)c1OC (stereo not drawn)	0.37	-0.43
O=c1c2cc(N3CCOCC3)ccc2[nH]c(=S)n1Cc1ccc(Cl)cc1	0.28	-1.2
COc1cc(C)c(NC(=S)Nc2cccc(Cl)c2)cc1OC	0.67	-0.74
NS(=O)(=O)c1ccc(NNC(=O)c2sccc2Cl)cc1	0.39	-0.72
CC(=O)c1ccc(NC(=O)c2cnn3ccccc23)cc1	2.4	-0.29
Brc1cccc(-c2nnc3n2CCC3)c1	2.1	0.93
CC(=O)c1cccc(NC(=S)NC2CC2)c1	0.01	1.5
COc1ccccc1NC(=O)c1ccc(NC(=O)CSc2ncn[nH]2)cc1	0.01	4
N=c1c2c(ncn1Cc1ccco1)Oc1ccc3ccccc3c1C2c1ccccc1 (stereo not drawn)	2.1	-0.79
CN(C)S(=O)(=O)c1ccc(Cl)c(NC(=O)COC(=O)CCSc2ccccc2)c1	0.47	0.09
Cc1occc1-c1nnc(SCC(=O)N2CCOCC2)n1CCc1ccccc1	0.28	0.12
O=C(NCc1ccccc1)c1cncc(Br)c1	0.4	-2.5
O=c1c2c(nc3c(-c4ccc(Cl)cc4)c[nH]n13)CCCC2	3.8	-0.36
CC(=O)Nc1ccccc1Sc1ccccc1	1.1	-0.8
Cc1nonc1C(=O)N/N=C/c1cc2c(cc1Br)OCO2	0.1	-0.56
CCOC(=O)c1csc(NC(=O)CCSc2ccccc2)n1	0.02	-0.35
Cc1cccc(-n2c(SCC(=O)NCc3ccco3)nnc2-c2ccco2)c1	0.12	-0.2
COc1ccccc1N1CCN(C(=O)c2cc(=O)c3c(C)cc(C)cc3o2)CC1	0.03	-1.2
C=CCOC(=O)c1cn(CC)c2nc(C)ccc2c1=O	0.01	-0.13
CC(=O)c1ccc(N(C(=O)Cn2nnc(-c3ccccc3)n2)C(C(=O)NC2CCCCC2)c2ccccn2)cc1 (stereo not drawn)	0.56	-0.96
CCC(C(=O)NC1CCCC1)N(C(=O)Cn1nnc(-c2ccc(C)o2)n1)c1cnc2ccccc2c1 (stereo not drawn)	0.47	0.05

Rewritten with two lines to a compound: entries from further up.
Sequence of screens – KCNQ2 enhance, KCNQ2 enhance baseline
Cc1cccc(NC(=O)c2ccc(S(=O)(=O)NCc3cccnc3)cc2)c1C
    1.1, 0.74
Cc1ccc(NC(=O)C2C(=O)N(CCO)C3(C)CC2c2ccccc2O3)cc1 (stereo not drawn)
    0.45, -1.8
COc1ccccc1C(=O)Nc1cccc(C(=O)N2CCOCC2)c1
    0.14, -0.1

Remaining list, next part
SMILES	KCNQ2 enhance	KCNQ2 enhance baseline
Cc1ccc(NCc2nc3ccccc3n2C)cc1	0.21	-1.9
Cc1cccc(NC(=O)c2cc(NC(=O)C3CCCCC3C(=O)O)ccc2N2CCOCC2)c1 (stereo not drawn)	1.1	0.57
CCOc1cc(C(=O)Nc2ccncc2)cc(OCC)c1OCC	0.49	-1.1
COc1ccccc1-c1nnc(N(C)C(=O)C2CCCO2)s1 (stereo not drawn)	1.9	-0.11
CCC1(C)Cc2c(sc3nnn(CC(=O)Nc4ccccc4)c(=O)c23)CO1 (stereo not drawn)	19*	0.07*
CCc1ccc(Nc2ncc3c(n2)CC(c2ccc(OC)cc2)CC3=O)cc1 (stereo not drawn)	0.13	-1.3
O=C(c1ccc([N+](=O)[O-])cc1)N1C=CC(C(F)(F)F)=NCC1	3.4	0.82
O=C(c1ccccc1[N+](=O)[O-])N1CCN(Cc2ccc3c(c2)OCO3)CC1	1.1	0.02
CC12CN3CC(C)(CN(C1)C3c1cc3ccccc3[nH]1)C2=O (stereo not drawn)	1.2	-2.2
CCN(Cc1ccccc1)C(=O)CCS(=O)(=O)c1ccc2c(c1)CCN2C(C)=O	1.6	0.05
COc1ccc(CN2CC(C(=O)NCCN3CCN(c4ccccc4F)CC3)CC2=O)cc1 (stereo not drawn)	0.87	1.7
C=CCc1cc2c(oc(=O)c3ccccc32)c(C)c1O	2.2	-0.46
CCN(CC)c1ccc(/C=N/NC(=O)c2c(Cl)cnn2C)c(O)c1	1.2	-0.02
CCCNC(=O)CN(C)S(=O)(=O)c1c(C)cc(C)cc1C	0.77	-0.56
Cc1ccsc1/C=N/NC(=O)c1c[nH]c2ccccc12	0.02	0.68
OCCNCCOc1ccc(Cl)c(Cl)c1	0.45	-1.1
CSc1nc2ccsc2c(=O)n1-c1ccccc1	1.4	2.6
CCOc1[nH]n(-c2ccccc2)c(=O)c1C=NCc1cccnc1	0.87	0.04
CCN(CCn1cccn1)C(=O)c1cc(COc2c(F)cccc2F)on1	1.4	0.1
CCC(C)NC(=O)Cn1cnc2sc(C)c(S(=O)(=O)N3CCN(c4ccccc4OC)CC3)c2c1=O (stereo not drawn)	0.81	0.97
CCC1CCCN1Cn1cnc2c([nH]c3ccc(Cl)cc32)c1=O (stereo not drawn)	1.1	0.94
COc1ccc(CCNC(=O)Nc2ccc(F)cc2F)cc1OC	1.1	0.36
O=C(c1ccc(Cl)cc1)c1c[nH]c(C(=O)C(Cl)(Cl)Cl)c1	1.9	-0.65
O=C(NCCCN1CCOCC1)C(C(=O)NCCCN1CCOCC1)c1ncc(C(F)(F)F)cc1Cl	0.07	0.18
Cc1ccc(CSC2=CS(=O)(=O)c3ccccc3N2)cc1	0.27	0.6
Cn1nc(N)c2c(-c3ccc(Cl)cc3)c(C#N)c(N)nc21	0.21	-0.13
Cc1cc(C)cc(NC(=O)Cn2c(-c3ccccc3Cl)nc3ccccc32)c1	1.1	-0.6
Cc1ccc(N(C)S(=O)(=O)c2c[nH]c3ccc([N+](=O)[O-])cc23)cc1	2.6	-1.3
N#C/C(=C\c1cccnc1)c1nc2c(s1)CCCC2	0.01	-0.64
N=c1sccn1CC(=O)Nc1ccccc1Cc1ccccc1	1.1	-1.4
CCOc1ccccc1NC(=O)CCNC(=O)c1ccc(Cl)cc1	0.01	1.6
COc1cccc(-c2ccc3c(N)c(C(=O)NC4CC4)sc3n2)c1	1.7	-1.2
CC[C@@]1(c2ccccc2)C(=O)N(C(=O)OC)N1C(=O)OC	1	-0.02
CN(Cc1ccccc1)c1nc2nonc2nc1N1CCCC(CN2CCCC2=O)C1 (stereo not drawn)	1.3	-0.01
CCOC(=O)C1=C(CN2CCOCC2)NC(=O)NC1c1cc(C)ccc1C (stereo not drawn)	0.12	-0.08
COc1cccc(/C=N/Nc2nc(Nc3ccc([N+](=O)[O-])cc3)nc(N3CCCC3)n2)c1O	1.1	-1.4
Cc1ccccc1NC(=O)c1sc2nc(N3CCOCC3)c3c(c2c1N)CCCC3	0.87	-0.02
COC(=O)Cn1cnc2c(cnn2-c2ccc(OC)cc2)c1=O	1.6	-0.19
Cc1nc2ccccc2c2c1C(=O)N(C)C2=O	0.97	5.4
CCOC(=O)N1C(=O)[C@@](CC)(c2ccccc2)N1C(=O)OCC	1.6	0.12
Cc1ccc(C(C)C)c(OCCNCc2ccccc2)c1	1.1	-0.58
Cc1ccc(N)c(C(O)(C(F)(F)F)C(F)(F)F)c1	0.01	-0.67
CCOC(=O)c1nnn2c3ccccc3c(=O)n(C)c12	0.59	-0.29
O=S1(=O)N=C2CCCCCN2C(c2ccc(F)cc2)N1 (stereo not drawn)	0.52	0.47
COC(=O)c1ccc(C(=O)OC)c(NC(=S)N2CCCC(CO)C2)c1 (stereo not drawn)	0.39	4
CCN(CC)CCCNC(=O)c1[nH]c2ccccc2c1Sc1ccc(Cl)cc1	0.71	0.02
O=C(NCC1CCN(Cc2cccc(Cl)c2)CC1)Nc1ccccc1Cl	1.4	0.37
CC1=CC(C)(C)NC(=S)N1c1ccc(C)cc1C	0.02	-0.88
OCC1CCCN(Cc2ccc(-c3ccccc3)cc2)C1 (stereo not drawn)	0.13	1.4
CCOC(=O)C1(Cc2ccccc2)CCN(Cc2cccc3c2OCO3)CC1	0.47	0.53
COc1ccc(-c2[nH]ncc2CNCCc2ncccc2C)cc1F	0.06	0.02
Cc1cc(=O)oc2cc(NC(=O)c3cccc(S(=O)(=O)N(C)C)c3)ccc12	0.3	0.53
COc1ccc(Oc2coc3cc(O)ccc3c2=O)cc1	0.72	-0.05
O=C(Cc1csc(NC(=O)Nc2cccc(Cl)c2)n1)NC1CCCC1	0.36	1.4
COc1ccc(Cc2nnc3c4cnn(C)c4ncn23)cc1	0.88	-0.83
COc1ccccc1-c1cc(C(=O)NCc2ccc(Cl)cc2)no1	1.9	-0.57
CCC(NC(=O)OC(C)(C)C)C(=O)Oc1ccc2c3c(c(=O)oc2c1)CCC3 (stereo not drawn)	0.44	0.89
O=C(C[n+]1cc(Br)cc(Br)c1)c1ccc(-c2ccccc2)cc1	1.1	-0.98
NC(=O)C1CCN(C(=O)CC2(CC(=O)O)CCCC2)CC1	1.5	0.11
Cc1ccc(S(=O)(=O)N2CCN(CC(O)COc3ccccc3)CC2)cc1 (stereo not drawn)	0.38	1.4

3 entries already listed, arranged by the value under KCNQ2 enhance, smallest number first:
| structure | KCNQ2 enhance | KCNQ2 enhance baseline |
| --- | --- | --- |
| CCOC(=O)c1nnn2c3ccccc3c(=O)n(C)c12 | 0.59 | -0.29 |
| CCN(CC)CCCNC(=O)c1[nH]c2ccccc2c1Sc1ccc(Cl)cc1 | 0.71 | 0.02 |
| Cc1nc2ccccc2c2c1C(=O)N(C)C2=O | 0.97 | 5.4 |

Next entries
SMILES	KCNQ2 enhance	KCNQ2 enhance baseline
CC(=O)NNc1cc(C)nc(NS(=O)(=O)c2ccc(C)cc2)n1	0.26	-0.26
COc1ccc(OC)c(N2C(=O)C(Cl)=C(N3CCOCC3)C2=O)c1	0.4	-0.85
Cc1ncc([N+](=O)[O-])n1CC(=O)NCc1ccccc1	0.33	0.48
O=C1CCCN1c1cc(Cl)ccc1Cl	0.78	-0.11
COc1ccc(NC(=O)/C(C#N)=C/c2ccc[nH]2)c(OC)c1	1	-0.31
COCCN(C(=O)COC(=O)CCC1CCCC1)c1c(N)n(Cc2ccccc2)c(=O)[nH]c1=O	1.4	-0.04
Cc1oc(-c2ccccc2F)nc1CS(=O)CC(=O)NCc1ccc(F)cc1 (stereo not drawn)	0.63	0.62
O=C(COC(=O)C1CCC1)NCCc1ccc(Cl)cc1Cl	0.36	0.11
O=C(NCCc1csc(-c2ccccc2)n1)c1ccccc1F	0.02	0.41
Cc1ccc(CN(Cc2ccccc2)C(=S)Nc2ccccc2C)o1	1.2	2.9
O=C(Nc1cccc(F)c1)C1CCCN1S(=O)(=O)c1cccc2cccnc12 (stereo not drawn)	1.5	0.04
Cc1cc(NC(=O)CCC(=O)N(CC(=O)NC2CCCC2)Cc2ccco2)no1	0.03	0.27
COCc1c(C(=O)N/N=C/c2ccc(C)o2)nnn1-c1nonc1N	0.53	-1.8
Cn1c2ccccc2c2cnn(CC(=O)Nc3ccc(F)cc3F)c(=O)c21	0.38	0.08
C#CCn1c(=NC(=O)CSCC(=O)N2CCOCC2)sc2ccccc21	1.3	-1.5
CS(=O)(=O)N(CCc1ccccc1)CC(=O)NCc1ccc(Cl)cc1	1.5	-0.83
CC(CC(=O)Nc1ccc(F)cc1)S(=O)(=O)c1ccc2c(c1)NC(=O)CO2 (stereo not drawn)	2.2	-2.7
CC1=Nc2cc(C(=O)NCc3ccco3)ccc2Sc2ccc(C)cc21	0.79	-2.7
O=C(C[n+]1cc(-c2ccccc2)n2c1CCC2)OCc1ccccc1	1.1	0.04
CCCCN(CC)CCCNC(=O)c1cc2cc3ccc(C)cc3nc2o1	3.1	-0.03
Cc1ccc(NC(=O)C2CCN(C(=O)c3ccccc3C)CC2)nc1	0.15	1.4
O=C(c1ccc(Cn2ccc([N+](=O)[O-])n2)cc1)N1CCN(Cc2ccccc2)CC1	0.16	-1.6
